TRPV1 potentiator: enhances activation of the human vanilloid receptor TRPV1; Q8NER1; TRPV1-expressing cells, Fluo-8 calcium influx, capsaicin EC20 potentiation; host cell line not named in the record; control for the full effect not named in the record; potentiation, % at 8.33 µM; hit rate 0.02% among 320,000; active means potentiation above 80%; inconclusive means 30% to 80%; inactive means below 30%; also: 0% is about no effect
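Cells expressing TRPV1 were dye-loaded with Fluo-8 and read kinetically: 10 s baseline, 3 min after compound (agonist portion), then 2 min after EC20 capsaicin (allosteric enhancer portion). Calcium-bound dye fluorescence at 480/520 nm.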
gsp antagonist: antagonists of gsp mutant (McCune-Albright syndrome). gsp-mutant cells, cAMP HTRF, 30 min; control for the full effect not named in the record. Potency, µM (series often up to 76.9 µM), without a hit: at the highest dose activity change, negative = inhibition, most hits filed as inhibitors. hit rate 0.4% among 340,000. AID 624288; active = falling curve of any shape with a large fitted effect; inconclusive = falling curve, mostly with a smaller effect; inactive = flat or rising curve; cell line not stated here;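 also: intracellular cAMP measured with PDE inhibitor Ro 20-1724 present during compound exposure; potency is read from the fitted curve at half-maximal effect; % is scaled to controls: 0 for no effect and ±100 for the full control effect; nearly all actives have a fitted effect of over 65% in size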
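Measurement of cellular cAMP by homogeneous time-resolved fluorescence following a 30 min compound exposure at 37C. The PDE inhibitor […] was present throughout; the assay buffer was DPBS with 0.05% BSA and 0.005% Tween 20.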
gsp agonist: activates gsp, the McCune-Albright syndrome mutation. Potency, µM (highest dose often 76.9 µM), for the others: top-dose activation (cAMP increase), hits mostly activators. hit rate 0.13% among 340,000. gsp mutant cells, cAMP HTRF, 30 min; control for the full effect not named in the record. AID 624287; active = well fitted activation curve with a large enough effect; inconclusive = small, poorly fitted or top-dose-only effect, or another doubt; inactive = no such curve, though single readings can be large or run the other way; cell line not stated here;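 also: phosphodiesterase inhibitor Ro 20-1724 added with compounds to block cAMP breakdown; potency is read from the fitted curve at half-maximal effect; nearly all actives have a fitted effect of over 60% in size; about a fifth of the inactives were tested at one dose only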
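Cells in DMEM/10% FBS with G418 were pretreated with compounds in DMSO plus […] (300 uM stock) for 30 min at 37C. cAMP was measured by HTRF (cAMP-d2 plus anti-cAMP antibody-K) after 30 min at room temperature.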
Sfp inh: Sfp phosphopantetheinyl transferase inhibition | Biochemical Sfp PPTase activity, qHTS | Q9F4F7 | Potency, µM, for inactives: max response, negative = inhibition, most hits filed as inhibitors | hit rate 3.5% among 310,000; active = well fitted inhibition curve with a large enough effect; inconclusive = small, poorly fitted or top-dose-only effect, or another doubt; inactive = no such curve, though single readings can be large or run the other way;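 also: the enzyme is Sfp with the accession as filed and its product quenches rhodamine fluorescence; potency is read from the fitted curve at half-maximal effect; 0% = enzyme reaction without inhibitor and -100% = no enzyme wells; top concentration of the series not given in the record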
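Reaction rates are the 30-min fluorescence difference (ex 525, em 598 nm) in wells containing 15 nM Sfp, 5 uM rhodamine-CoA and 12.5 uM BHQ-2-YbbR at pH 7.6 with 10 mM MgCl2.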
Menin MLL FP FL: displaces fluorescein MLL peptide from human menin; 290,000 tested, under 10 active; Fluorescence polarization, fluorescein-MLL peptide displacement from menin; AID 1766; FP activity change, % at 61.4 µM; inconclusive = falling polarisation curve, or a change in total fluorescence; inactive = total fluorescence flat and polarisation flat or rising; no compound was filed as active; the % refers to the polarisation; negative = inhibition;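 also: % of control where 0% means no effect; inhibitors lower the polarisation; unlabelled MLL peptide was the positive control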
ClpP mod: qHTS Assay for Activators of ClpP. purified B. subtilis ClpP, FRET peptide cleavage, 20 min. ATP-dependent Clp protease proteolytic subunit (Bacillus subtilis (strain 168)), P80244. Potency, µM (top dose mostly 57.5 µM), inactives show top-dose activity change, negative = active. hit rate 1.9% among 340,000; active = well fitted falling curve with a large enough effect; inconclusive = small, poorly fitted or top-dose-only effect; inactive = no such curve, though single readings can be large or run the other way; also: potency is read from the fitted curve at half-maximal effect; the source files actives as falling curves though it sought activators and does not explain the sign; nearly all actives have a fitted effect of over 65% in size; many hits overshoot -100%
Target sequence (P80244 whole entry, looked up): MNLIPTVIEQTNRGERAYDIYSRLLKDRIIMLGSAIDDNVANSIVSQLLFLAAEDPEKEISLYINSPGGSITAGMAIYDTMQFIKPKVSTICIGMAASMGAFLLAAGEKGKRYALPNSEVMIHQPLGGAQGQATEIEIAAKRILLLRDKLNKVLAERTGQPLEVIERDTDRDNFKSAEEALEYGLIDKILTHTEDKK
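Buffer: 100 mM Tris/HCl pH8, 100 mM KCl, 0.05% low protease BSA, 2.5% glycerol, 0.01% Tween-20. ClpP 10 microg/mL final; 20 min RT; delta FRET normalized to ADEP and DMSO controls.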
TRPML1 inh: human mucolipin-1 channel inhibition; hit rate 0.02% among 390,000; TRPML1-inducible cells, Ca2+ dye fluorescence, FDSS; active compounds read low; inhibition of EC80 agonist-evoked calcium signal; activity change, negative = inhibition, % (concentration not given with the values); Q9GZU1; in the data active means activity change below about -50%; inconclusive means about -30% to -50%; inactive means above about -30%;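 also: stimulus is agonist 54-4 at its EC80 concentration; % is scaled to controls: 0 for no effect and ±100 for the full control effect; the text of the record puts the active cut at -80%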
Target sequence (Q9GZU1 whole entry, looked up): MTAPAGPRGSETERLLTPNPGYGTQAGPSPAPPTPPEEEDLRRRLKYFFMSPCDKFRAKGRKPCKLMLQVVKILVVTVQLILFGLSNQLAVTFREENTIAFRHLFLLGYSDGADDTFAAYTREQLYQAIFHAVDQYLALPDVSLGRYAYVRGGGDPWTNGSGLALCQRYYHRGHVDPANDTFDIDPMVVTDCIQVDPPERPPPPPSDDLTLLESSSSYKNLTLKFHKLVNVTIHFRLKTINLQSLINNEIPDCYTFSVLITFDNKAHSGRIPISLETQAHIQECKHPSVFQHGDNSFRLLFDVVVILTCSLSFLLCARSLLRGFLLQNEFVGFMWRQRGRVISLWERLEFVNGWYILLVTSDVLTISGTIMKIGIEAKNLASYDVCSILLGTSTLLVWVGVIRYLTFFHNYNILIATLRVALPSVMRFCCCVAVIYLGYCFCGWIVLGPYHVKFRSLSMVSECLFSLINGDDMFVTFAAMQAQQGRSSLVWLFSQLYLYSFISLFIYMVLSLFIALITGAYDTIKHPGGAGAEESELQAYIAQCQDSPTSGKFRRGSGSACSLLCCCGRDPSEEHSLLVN
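Tet-induced TRPML1-DL cells loaded with Ca8 no-wash calcium dye were read kinetically on FDSS. Compound addition was followed by EC80 agonist 54-4 (4 uM final); inhibition was read over 110 s.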
Active calls of the source: *; ? = inconclusive; . = no result given; & = joins results of further samples; [ ] = dose if it differs, or a comment.

SMILES	TRPV1 potentiator	gsp antagonist	gsp agonist	Sfp inh	Menin MLL FP FL	ClpP mod	TRPML1 inh
COCCN(C(=O)c1oc2ccccc2c1COC)c1c(N)n(CC(C)C)c(=O)[nH]c1=O	5	9%	-7%	.	.	-20%	-21
COc1ccc(-c2csc(NC(=O)C3CCN(C(=O)c4ccc(F)cc4)CC3)n2)cc1OC	12	-26%	-38%[inhibitor]	-3%	-1.0	1.2%	-3
Cc1ccc(C)c(S(=O)(=O)NNC(=O)Nc2ccccc2Cl)c1	14	-4%	-12%	1%	.	0.3%	91
COc1ccc(/C=C(\NC(=O)c2ccc([N+](=O)[O-])cc2)C(=O)NCCCN2CCOCC2)cc1	10	4%	16%	0%	0.3	.	-5
Cc1ccc(NC(=O)c2cnn(-c3ccccc3)c2C)cc1C	-16	-7%	-22%[15.4 µM]	0%	-1.1	-4.3%	9
N#Cc1cccc(C#N)c1N1CCC(C#N)CC1	?	-4%	20%[15.4 µM]	10%	-0.1	.	-10
Cc1cc(N2CCC(C(=O)NC3CCCCC3)CC2)nc(-c2ccccc2)n1	-13	-7%	-21%	-8%	2.3	-4.5%	4
O=C(NC1CC1)C1=C[C@H](c2coc3ccccc3c2=O)C[C@H](OCCCCO)O1	.	13%	.	.	.	-5.7%	-10
O=C(CNCC1CCCCC1)Nc1ccc(OC(F)(F)F)cc1	-19	8%	-3%[15.4 µM]	-11%	3.7	.	9
CC(C)CCn1c(CN(C)Cc2ccccc2)nc2c1c(=O)n(C)c(=O)n2C	9	-8%	-55%[inhibitor]	2%	0.0	2.4%	2
COC(=O)c1ccc(C23CC4(C2)[C@H](CN(Cc2cccnc2)[C@@H]4c2ccccc2)C3c2ccccc2)cc1 (stereo not given in full)	-20	-2%	-5%	-14%&-25%	6.7&12	0.5%	-10
COc1ccccc1NC(=O)C(C)OC(=O)CCNS(=O)(=O)c1ccc(C)c(C)c1 (stereo not given)	-6	-9%	?	.	.	2.0%	18
CCc1cc(=O)n2[nH]c(C)c(-c3ccc(OC)cc3)c2n1	-11	-12%	22%	4%	-2.1	-2.9%	43
COc1cc(NC(=O)CSc2nc(C)c(C)c(C)n2)cc(OC)c1	-4	-11%	-2%[15.4 µM]	8%	4.4	.	-7
O=c1ccc(-c2ccc(S(=O)(=O)N3CCN(c4ccccc4)CC3)o2)n[nH]1	-8	6%	?	4%	.	-3.2%	-5
CCCCCCC(=O)Nc1ccc(C(=O)N/N=C/c2cccnc2)cc1	13	1%	-8%	-4%	-3.4	5.0%	-2
CCn1c(N2CCN(CC(=O)c3ccc(OC)cc3)CC2)nc2ccccc21	10	1%	-33%	7%	-0.7	3.4%	1
CC(C)[C@H](NC(=O)[C@@H]1Cc2ccccc2CN1C(=O)OC(C)(C)C)C(=O)NCC1CCC(C(=O)O)CC1 (stereo not given in full)	-7	9%	-16%	17%	-0.7	0.9%	.
NS(=O)(=O)c1ccc(CCNC(=O)C2CCCN2C(=O)OCc2ccccc2)cc1 (stereo not given)	6	3%	19%	18%	0.0	32µM*	0
COc1ccc(-c2cn3cc(C(F)(F)F)cc(Cl)c3n2)cc1	-11	-11%	-5%[15.4 µM]	-1%	2.8	.	9
Cc1ccc(C(=O)N2CCc3cc4c(cc3C2C)OCCCO4)cc1 (stereo not given)	-7	1%	7%	11%	4.8	-27%	8
CCOC(=O)c1ccc(NC(=O)CN2CCN(Cc3ccccc3)CC2)cc1	-7	-4%	9%[15.4 µM]	11%	-4.6	-2.1%	16
O=c1c(-c2ccc(F)cc2)coc2c3c(ccc12)OCCO3	6	9%	1%	3%	2.4	1.9%	2
CC(=O)Nc1nnc(SCC(=O)c2ccc3c(c2)Cc2ccccc2-3)s1	-9	6%	?	-7%	-2.9	4.0%	-13
CC1CCN(c2ccc(/C=N\Nc3nncn3N)cc2[N+](=O)[O-])CC1	22	-6%	7%	79µM*	-1.4	-0.5%	-11
COc1ccc(/C=C(/NC(=O)c2ccc(Br)o2)C(=O)Nc2cccc(C(=O)O)c2)cc1	.	.	-2%	.	.	-3.2%	37
O=C1C=C(c2ccc(Cl)c(C(F)(F)F)c2)C[C@@H](c2ccc(F)cc2)C1	-10	-3%	-14%	.	.	0.8%	33
CCOC(=O)Oc1ccc2c(=O)c(Oc3cc(C)cc(C)c3)coc2c1	-7	?	-21%	-16%	?	0.8%	7
N#CCC(=N)N1CCN(c2ccccc2)CC1	8	-1%	-14%	-12%	-0.1	0.9%	-8
NC(=O)COC(=O)c1ccc2c(c1)S(=O)(=O)c1ccccc1C2=O	-1	1%	-7%[15.4 µM]	-3%	-4.5	.	6
O=c1c2c3c(sc2ncn1/N=C/c1ccccc1)CCCC3	-10	-7%	-3%	3%	1.6	-2.7%	-10
O=C(Nc1ccc(N2CCCCC2)cc1)c1ccccn1	-9	-9%	?	1%	1.0	.	8
Cc1cc(C(=O)NCC(=O)Nc2c(C)cccc2C)c2ccccc2n1	7	6%	-13%	.	.	-10%	-7
CCOc1ccccc1N=C1SC(CC(=O)Nc2ccc(OC)cc2OC)C(=O)N1CCC1=CCCCC1 (stereo not given)	-5	-9%	5%	18%	4.8	?	13
CCCCOC(=O)C1=C(C)NC(=O)NC1c1cccc([N+](=O)[O-])c1 (stereo not given)	5	-7%	4%	5%	-1.9	-0.6%	-1
CCCCn1c(=O)nc2n(-c3ccc(OC)cc3)c3ccccc3cc-2c1=O	5	-18%	3%[15.4 µM]	9%	3.4	.	-11
N#CCCn1cc(C(=O)N2CCOCC2)c(-c2ccc3c(c2)OCCO3)n1	-12	9%	12%	25%	-0.2	.	-16
CN(CCCC(=O)NC1CC(C)(C)NC(C)(C)C1)S(=O)(=O)c1ccc([N+](=O)[O-])cc1	-20	4%	6%[15.4 µM]	-2%	-2.3	.	-17
Cc1cccc(C(=O)Nc2nsc(N)n2)c1	-7	6%	-21%	.	.	1.5%	4
COC(=O)c1sccc1NC(=O)c1ccnn1C	0	8%	?	8%	-1.6	-6.8%	9
COc1ccc2c(c1)C(=NNc1ccc(C(=O)O)cc1)c1cc(OC)ccc1-2	-1	-19%	13µM*	-18%	0.3	1.0%	1
COC(=O)c1cc(-c2cccs2)[nH]n1	11	40%[activator]	32%	-22%	1.3	-2.7%	12
COC(=O)Cc1nnc(SCC(=O)Nc2ccccc2)c2ccccc12	11	5%	9%	10%	.	4.1%	21
COc1ccc(C)cc1-n1nnnc1SCn1nnc2ccccc2c1=O	-1	?	1%	-6%	-0.1	0.2%	7
COc1ccc(CN2C(=NC(=O)COc3ccccc3)SC3CS(=O)(=O)CC32)cc1 (stereo not given)	-9	-2%	-24%	0%	.	1.1%	3
COc1ccc(C)cc1NC(=S)NNC(=O)c1c(Br)cnn1C	14	?	11%	2%	-3.6	.	-5
COc1ccc(Nc2nc(N3CCCCC3)nc3ccccc23)c(OC)c1	-15	?	-1%	?	0.4	-14%	3
CCOC(=O)/C(N=Nc1cc(C(=O)O)cc(C(=O)O)c1)=C(\O)CCl	-4	10%	-9%	-27%	-1.4	-3.4%	-3
Cc1cccc(N2CC(C(=O)Nc3nnc(SCc4ccccn4)s3)CC2=O)c1 (stereo not given)	-3	-20%	5%	?	-0.4	0.1%	-4
CCN(CC)C(=O)c1[nH]cnc1C(=O)Nc1cccc(C)c1	6	1%	.	.	.	15%	-3

Grouped by structure, the entries above with two or more sulfur atoms
SMILES	TRPV1 potentiator	gsp antagonist	gsp agonist	Sfp inh	Menin MLL FP FL	ClpP mod	TRPML1 inh
CC(=O)Nc1nnc(SCC(=O)c2ccc3c(c2)Cc2ccccc2-3)s1	-9	6%	?	-7%	-2.9	4.0%	-13
COc1ccc(CN2C(=NC(=O)COc3ccccc3)SC3CS(=O)(=O)CC32)cc1 (stereo not given)	-9	-2%	-24%	0%	.	1.1%	3
Cc1cccc(N2CC(C(=O)Nc3nnc(SCc4ccccn4)s3)CC2=O)c1 (stereo not given)	-3	-20%	5%	?	-0.4	0.1%	-4

Among those listed so far, these have a furan ring, fused or not.
SMILES	TRPV1 potentiator	gsp antagonist	gsp agonist	Sfp inh	Menin MLL FP FL	ClpP mod	TRPML1 inh
COCCN(C(=O)c1oc2ccccc2c1COC)c1c(N)n(CC(C)C)c(=O)[nH]c1=O	5	9%	-7%	.	.	-20%	-21
O=c1ccc(-c2ccc(S(=O)(=O)N3CCN(c4ccccc4)CC3)o2)n[nH]1	-8	6%	?	4%	.	-3.2%	-5
COc1ccc(/C=C(/NC(=O)c2ccc(Br)o2)C(=O)Nc2cccc(C(=O)O)c2)cc1	.	.	-2%	.	.	-3.2%	37

Carrying on.
SMILES	TRPV1 potentiator	gsp antagonist	gsp agonist	Sfp inh	Menin MLL FP FL	ClpP mod	TRPML1 inh
COc1ccc(-c2nc3c4ccccc4ccn3c2CN2CCCCC2)cc1	7	-10%	-61%[inhibitor]	13%	-1.2	4.5%	?
CC(C)(C)c1csc(NC(=O)Cc2ccc(S(=O)(=O)N3CCOCC3)s2)n1	-15	-11%	-31%[inhibitor]	.	.	-1.3%	5
Cc1nc2c(C)cccc2cc1C(=O)N/N=C/c1cccc([N+](=O)[O-])c1	-12	-3%	17%	24%	2.3	-3.6%	-14
COc1ccc(NS(=O)(=O)c2ccc(S(=O)(=O)N(C)C)cc2)cc1S(N)(=O)=O	7	1%	-1%	12%	-2.2	2.1%	-9
COc1ccc2cc(CN(CCc3ccccc3)Cc3nnnn3CC3CCCO3)c(=O)[nH]c2c1 (stereo not given)	-7	-10%	-26%	-17%	3.7	-27%	-8
CC(C)(C)NCCOCCOc1ccc(Cl)cc1C(C)(C)C	9	-5%	2%	56µM*	3.7	-3.0%	-16
Cc1cc(C)nc(NS(=O)(=O)c2ccc(NC(=O)c3cccc(N4C(=O)CCC4=O)c3)cc2)n1	0	-16%	12%	20%	7.3	-2.1%	5
CC(=O)Nc1sc2c(c1C(c1cccc(F)c1)N1CCN(CCO)CC1)CCCC2 (stereo not given)	1	0%	-12%	12%	-5.2	1.4%	10

From PubChem
